RecA intein inh = Mtb RecA intein splicing inhibition; P9WHJ3; cell-free RecA intein splicing, fluorescence; inhibition, %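 (about 9 µM by stock and volumes)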; 290,000 tested, 0.75% active; AID 2221; in the data active means inhibition above about 30%; inconclusive means no clear call, values can overlap the other calls;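 further: 0% = vehicle wells and 100% = reference inhibitor control wells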
Target sequence (P9WHJ3 whole entry, looked up): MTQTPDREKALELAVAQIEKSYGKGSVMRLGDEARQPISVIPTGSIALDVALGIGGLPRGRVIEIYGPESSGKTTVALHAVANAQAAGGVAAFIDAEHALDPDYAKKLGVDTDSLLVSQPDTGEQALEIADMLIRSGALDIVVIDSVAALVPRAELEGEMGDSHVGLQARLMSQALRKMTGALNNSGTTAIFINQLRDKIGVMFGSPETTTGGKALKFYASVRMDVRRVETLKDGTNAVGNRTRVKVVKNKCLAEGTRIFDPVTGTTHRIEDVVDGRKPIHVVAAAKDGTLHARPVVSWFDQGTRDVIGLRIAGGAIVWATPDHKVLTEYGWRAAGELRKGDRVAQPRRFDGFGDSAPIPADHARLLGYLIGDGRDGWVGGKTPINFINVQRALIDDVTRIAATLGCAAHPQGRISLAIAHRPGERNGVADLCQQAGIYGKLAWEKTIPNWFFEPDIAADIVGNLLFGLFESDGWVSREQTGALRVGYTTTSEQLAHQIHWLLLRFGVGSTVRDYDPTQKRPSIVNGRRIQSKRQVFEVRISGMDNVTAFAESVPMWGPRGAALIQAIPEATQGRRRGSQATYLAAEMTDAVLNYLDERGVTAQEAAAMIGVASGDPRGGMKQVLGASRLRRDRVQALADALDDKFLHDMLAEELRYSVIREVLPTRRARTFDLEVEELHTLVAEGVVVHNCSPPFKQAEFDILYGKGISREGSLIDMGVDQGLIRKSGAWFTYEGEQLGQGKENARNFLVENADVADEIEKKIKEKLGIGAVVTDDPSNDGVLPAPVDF
Mtb betalactam = beta-lactam sensitization of Mtb H37Rv; M. tuberculosis H37Rv growth with meropenem, percent inhibition; hits of this screen are not shown here; inhibition, % at 25 µM; 330,000 tested, 0.27% active; AID 434955;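 active means about 74% or more and at least 40 points above the plate without the antibiotic, then above 30% in a dose series; inconclusive means first-round hits that could not be retested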;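 further: growth measured after seven days incubation then overnight dye step; 0% = bacteria only wells and 100% = bacteria with antibiotic; twin plates without the antibiotic show which effects depend on it; some results filed as inactive read as strong as hits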
Mtb growth = M. tuberculosis H37Rv growth inhibitors, H37Rv strain (AID 1626); M. tuberculosis H37Rv growth inhibition; higher % means a stronger effect; inhibition, % at 10 µM, or IC50 in µM where a hit was titrated; 220,000 tested, 0.95% active;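 active means confirmed in a dose series; inconclusive means inhibition above 80% but not taken into the dose series; inactive means below 80% or under 30% at every dose of the series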;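 further: bacteria incubated seven days before Alamar blue readout; 0% = bacteria only wells and 100% = bacteria with antibiotic wells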
YopH inh = blocks Yersinia enterocolitica YopH tyrosine phosphatase | fluorescence Ex485/Em525 | inhibition, %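 (about 10 µM by stock and volumes)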 | 140,000 tested, 0.16% active;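 active means inhibition of 50% or more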;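 further: controls were vehicle for no effect and minimum signal wells for full effect; inactives centre near -20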
Arbovirus inh = blocks arbovirus infection; 200,000 tested, 0.37% active; inhibition, % at 10 µM; AID 1251; arbovirus infection cell-based antiviral screen;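 active means inhibition from about 30%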;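 further: bluetongue infection of BSR cells; cell survival read as ATP light after 72 h; 0% = infected wells without compound and 100% = uninfected wells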
Arbovirus inh repeat = recorded beside Arbovirus inh, whose call it bears; inhibition, %; measured here: 10K subset replicate screen; many hits read low in the repeat;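 first of two repeat runs on a subset; 0% = infected and 100% = uninfected wells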
Active calls of the source: *; ? = inconclusive; . = no result given. Some of the compounds tested (hit frequency here may not be typical).

SMILES	RecA intein inh	Mtb betalactam	Mtb growth	YopH inh	Arbovirus inh	others
COc1cccc(N2CCN(c3ncccn3)CC2)c1	1.3	-6	3%	-8	1
Cc1ccnc(NS(=O)(=O)c2ccc(NC(=O)c3ccc(C)o3)cc2)n1	-1.9	0	4%	-30	8
CCOC(=O)CC1(NC(=O)C2CCC(=O)N(Cc3ccccc3F)C2)CCCCC1 (configuration not stated)	1.6	8	.	.	.
Cc1ccc(S(=O)(=O)NCCCCCC(=O)Nc2ccccc2)cc1	4.3	15	4%	-30	-3
NC(=O)C1CCN(C(=O)COc2ccc3ccccc3c2Br)CC1	-2.3	1	.	.	.
COc1ccc(NC(=O)N2CCC(C(=O)c3ccc(F)cc3)CC2)cc1	2.2	7	-1%	-74	4
CC(=O)Nc1nnc(-c2c(-c3ccccc3Cl)noc2C)o1	0.0	-2	-10%	.	.
Cc1noc(C)c1S(=O)(=O)N(CCc1ccccc1)Cc1ccccc1	8.0	-1	6%	-27	1
c1ccc2c(c1)oc1c(Nc3ccc(CN4CCOCC4)cc3)ncnc12	-0.7	-14	-9%	-10	-47
Cc1ccc(OCc2ccc(C(=O)O)o2)cc1C	-0.2	-1	.	.	.
O=C(NCCc1cnn(-c2ccccc2)c1)c1cc(COc2c(F)cccc2F)on1	7.1	60	20%	.	-32
CCn1c(C)nc2cc(S(=O)(=O)C(F)F)ccc21	-1.9	-3	-12%	-9	8
COC(=O)[C@H](CCSC)NC(=O)Nc1ccc(OC)cc1	-4.7	-11	-1%	-17	10
CC(=O)c1ccc(NC(=O)CSc2nc3nc(C)cc(C)n3n2)cc1	-4.8	-3	-5%	-23	6	Arbovirus inh repeat=5
CCOc1ccc(Br)cc1S(=O)(=O)N1CCSC1	-0.2	2	.	.	.
CCOC(=O)c1ccc(NC(=O)c2nc[nH]c2C(=O)NC2CCN(C(=O)OC(C)(C)C)CC2)cc1	-1.2	83	42%	.	.
CC(=O)NNC(=O)c1cc2sccc2s1	-1.8	-6	-1%	.	.
CCCC(O)(c1ccc(Cl)cc1)C(CN1CCOCC1)c1ccccc1 (configuration not stated)	11	8	3%	13	-28
C=CCOc1ccccc1/C=N/NC(=O)c1ccc(Cl)cc1Cl	3.5	3	-3%	-23	-11
CNC(=S)N/N=C/c1c(C(=O)OC)cnn1-c1ccc(F)cc1F	0.0	4	0%	.	.
COc1cccc(-c2cc(C(=O)NC3CCCC3)no2)c1	2.5	72	9%	4	-4
O=C(CSc1ccc(F)cc1)Nc1ccc2c(c1)C(=O)NC2=O	-5.1	-8	.	.	.
C/C(=N\Nc1c(Cl)c(Cl)nc(C(=O)O)c1Cl)c1ccc(O)cc1	0.1	0	.	.	.
Cc1ccc(C(=O)O)cc1S(=O)(=O)NCC1CCCO1 (configuration not stated)	1.2	-1	1%	-11	3
CN1CCN(C(=O)/C=C/c2ccc(C#N)cc2)CC1	-1.3	-4	.	.	.
O=C(NCCc1ccc(Cl)cc1)c1ccc2nc[nH]c2c1	1.6	0	-5%	.	-23
O=C(N/N=C/c1c(F)c(F)c(F)c(F)c1F)c1ccc(Cn2cc(Br)cn2)o1	3.4	100	?	-8	7
Cc1ccc(C(=O)NCCc2n[nH]c(=S)n2C)cc1	-0.2	2	-3%	.	2
C/C(=C/C#N)Nc1ccc(C)cc1	1.4	-8	0%	.	2
Cc1nn(C)cc1C(=O)Nc1cc(Oc2ccc(Cl)cc2)cc([N+](=O)[O-])c1	1.2	-4	1%	-3	-9
COC(=O)c1ccc(NC(=O)C2CCCCC2C(=O)O)cc1 (configuration not stated)	0.4	6	-14%	-39	-2
CCn1c(/C=C/c2ccccc2[N+](=O)[O-])nc2ccccc2c1=O	-1.2	-5	3%	.	2
COc1ccccc1N1CCN(C(c2cccs2)C(C)NC(=O)C(=O)N2CCOCC2)CC1 (configuration not stated)	0.6	3	.	.	.
CC1CCCC(NC(=O)COC(=O)c2ccccc2NC(=O)c2ccco2)C1C (configuration not stated)	-1.6	11	-1%	-28	0
CC(C)C(c1nnnn1C1CCCC1)N1CCC(C(N)=O)CC1 (configuration not stated)	-4.7	-3	1%	.	3
Cn1cnc(S(=O)(=O)NC2CCN(Cc3c(F)cccc3Cl)CC2)c1	-0.6	-6	.	.	.
Cc1ccccc1NC(=O)c1ccccc1NC(=O)Cc1cccc2ccccc12	.	-2	11%	-5	-12
COc1ccc(/C=C2\C(=O)N(c3c(Cl)cc(Cl)cc3Cl)N=C2NC(=O)c2cccc([N+](=O)[O-])c2)cc1	.	-2	-12%	-16	0
CCCCn1c(N)c(N(CCOC)C(=O)C2CCN(S(=O)(=O)c3ccc(Cl)cc3)CC2)c(=O)[nH]c1=O	1.7	-4	.	.	.
CNP(=S)(NC)OCCOc1ccc(OC)cc1	-2.1	3	1%	-43	6
Nc1nccc(-c2nn(-c3ccc(Cl)cc3)ccc2=O)n1	-0.1	-1	-5%	.	.
CCOC(=O)c1ccccc1NC(=O)COC(=O)CSc1ccccc1	0.7	5	.	.	.
COc1ccc(C(=O)NCCc2nnc3ccc(SCC(=O)N4CCCCC4)nn23)cc1	-5.4	6	.	.	.
NC(=O)N1CCN(C(=O)c2ccco2)CC1	0.7	1	-7%	0	-1
Cc1ccc(CNC(=O)Nc2ccccc2)c(C)c1	-1.3	6	.	.	.
Fc1cccc(/C=N/Nc2ccc(Cl)nn2)c1	-1.2	4	.	.	.
Cc1ccc(-n2c(SCC(N)=O)nnc2-c2ccccn2)cc1C	-0.9	-9	-11%	6	-6
CCOC(=O)N1CCN(C(=O)N2CCOCC2)CC1	-3.6	0	1%	-28	4
COc1ccccc1CN(Cc1nc2ccccc2c(=O)[nH]1)C(=O)Nc1ccccc1C	-0.9	8	4%	-24	-10
Cc1ccc(C)c(NC(=S)NCCN(C2CCCCC2)C2CCCC2)c1	1.5	-8	6%	.	7
Cc1ccc(NC(=O)Cc2c[nH]c3ccccc23)cc1S(=O)(=O)N1CCCCCC1	6.9	9	1%	-24	-6
O=C(CSc1ncn[nH]1)NCCc1ccccc1	-2.1	4	-2%	-10	8
COc1ccc(NC(=O)C2CCN(c3ncnc4c3nc3n4CCCCC3)CC2)cc1Cl	2.6	41	.	.	.
O=C(CNS(=O)(=O)c1ccccc1)OCC(=O)c1ccc([N+](=O)[O-])cc1	-6.8	-7	-8%	2	-9
Cc1c(Cl)cccc1-n1cnc(=O)c2ccccc21	2.6	6	.	.	.
CCn1nc(C(=O)Nc2cccc3ccccc23)c(Cl)c1Cl	9.1	16	-2%	-27	6
CN/C(=C/[N+](=O)[O-])NCCSCc1ccc(CN(C)C)o1	0.6	4	-10%	-52	7
CC(C)(C)NC(=O)CSc1nnc(SCC(=O)NC(C)(C)C)s1	-3.2	-5	2%	.	4
Cc1ccc(-c2nnc(OCc3cccnc3)c3ccccc23)cc1	9.4	34	-4%	.	10
COc1ccc(N2CCN(C(=O)COC(=O)c3ccccc3OCc3ccc(F)cc3)CC2)cc1	-1.7	-5	.	.	.

Additional structures.
SMILES	RecA intein inh	Mtb betalactam	Mtb growth	YopH inh	Arbovirus inh	others
COc1ccc(Cl)cc1N1C(=N)SCC1=O	-2.4	-5	2%	.	1
O=C(CN1C(=O)NC2(CCCC2)C1=O)Nc1cc(S(=O)(=O)N2CCOCC2)ccc1OCC(F)(F)F	0.6	-1	.	.	.
CCC(C)c1ccc(NC(=O)COC(=O)C2=COCCO2)cc1 (configuration not stated)	1.4	93	4.5µM*	-15	2
Cc1ccc(N2CC(NC(=O)C(=O)c3c[nH]c4ccccc34)CC2=O)cc1C (configuration not stated)	-0.5	1	.	.	.
Nc1nc2n(n1)C(c1cccs1)CC(c1ccc(Br)cc1)N2 (configuration not stated)	3.0	9	0%	-17	4
Oc1cccc(Nc2nc(N3CCOCC3)nc(N3CCOCC3)n2)c1	1.0	1	.	.	.
CCc1nc(N2CCN(C(=O)c3ccco3)CC2)c(C#N)c2c1COC(C)(C)C2	1.6	5	.	.	.
O=C(CSc1nc2nc(-c3cccs3)cc(C(F)(F)F)c2c(=O)[nH]1)Nc1ccc(F)c(F)c1	-7.6	19	3%	.	-38
COc1ccc(CNC(=O)Nc2ccc(C)c(C)c2)cc1	-1.6	-4	-5%	.	-2
O=C(CCS(=O)(=O)c1ccc(Br)s1)Nc1ccccc1Br	-21	11	-4%	.	6
COc1cccc(-c2nn(C)c3sc(C(=O)N4CCOCC4)cc23)c1	1.6	4	2%	-35	-14	Arbovirus inh repeat=-8
Cc1ccc(NC(=O)CSc2nc3ccccc3c(=O)n2CCCC(=O)NCC2CCCO2)cc1 (configuration not stated)	1.8	6	.	.	.
Cc1ccc(S(=O)(=O)N(CCCO)Cc2cc3c(C)ccc(C)c3[nH]c2=O)cc1	2.7	-6	-4%	-13	6
O=C(Nc1ccccc1-c1ccccc1)C(c1ccccc1)c1ccccc1	-0.8	7	1%	-1	2
c1ccc(-c2cc(CSc3nc4ccccc4[nH]3)on2)cc1	3.6	0	-3%	-6	14
COc1cc(/C=N/NC(=O)c2ccc(CN(C)S(=O)(=O)c3ccc(C)cc3)cc2)ccc1O	1.1	29	8%	.	-22
O=C(COc1nncc2ccccc12)Nc1c(F)c(F)c(F)c(F)c1F	-1.4	1	-4%	.	8
Cc1ccc(C(=O)N/C(=C\c2ccco2)C(=O)NCCCn2ccnc2)cc1	-0.7	-7	-3%	-10	1
O=[N+]([O-])c1ccccc1CSc1nc2ccccc2o1	4.3	-2	-3%	-12	-2
CN(CC(=O)Nc1ccc(Cl)c(C(F)(F)F)c1)C(=O)c1ccc2c(c1)OCCO2	1.1	44	.	.	.

In the list so far, these have a COOH group.
SMILES	RecA intein inh	Mtb betalactam	Mtb growth	YopH inh	Arbovirus inh	others
Cc1ccc(OCc2ccc(C(=O)O)o2)cc1C	-0.2	-1	.	.	.
C/C(=N\Nc1c(Cl)c(Cl)nc(C(=O)O)c1Cl)c1ccc(O)cc1	0.1	0	.	.	.
Cc1ccc(C(=O)O)cc1S(=O)(=O)NCC1CCCO1 (configuration not stated)	1.2	-1	1%	-11	3
COC(=O)c1ccc(NC(=O)C2CCCCC2C(=O)O)cc1 (configuration not stated)	0.4	6	-14%	-39	-2

The listing continues.
SMILES	RecA intein inh	Mtb betalactam	Mtb growth	YopH inh	Arbovirus inh	others
CC1(c2ccccc2)NC(=O)N(NC(=O)COC(=O)c2cc(Br)ccc2O)C1=O (configuration not stated)	-1.4	-9	.	.	.
O=C1CCCC(=O)C1Sc1ccc(Cl)cc1	-1.3	-2	3%	.	-1
Cc1ccccc1N1CCN(CCCCN2C(=O)C3CCCN3C2=O)CC1 (configuration not stated)	-6.3	-4	0%	-32	1
CN1CCCN(C(=O)c2c(F)cccc2Cl)CC1	0.5	-9	.	.	.
COc1ccccc1/C(C)=N/NC(=O)c1nnn(-c2nonc2N)c1C(C)C	2.2	-6	.	.	.
CCn1cc(C(=O)N2CC=C(c3ccccc3)CC2)c(=O)c2ccc(C)nc21	3.3	-10	-2%	-32	10
CCN(CC)S(=O)(=O)c1ccc2c(c1)nc(CCC(=O)O)n2C	2.3	-2	-7%	.	.
Cc1cc(NC(=O)COC(=O)c2oc3c(ccc4ccccc43)c2C)no1	1.6	6	-4%	-6	2
O=S(=O)(NCC1CCCO1)c1ccc(S(=O)(=O)N(Cc2ccccc2F)C2CCCCC2)cc1 (configuration not stated)	-1.2	6	-5%	44	.
CCN(CC(=O)NCc1ccc(Cl)cc1)C(=O)CN1C(=O)NC(C)(c2ccccc2)C1=O (configuration not stated)	0.6	-1	.	.	.
CCOC(=O)c1sc(C)c2c(=O)n(CCCN3CCOCC3)cnc12	0.4	2	-4%	-13	12
NC(=O)CSc1nnc(SCc2ccc(F)cc2)s1	4.1	77	20%	.	-3
CN(CCOc1ccc(Cl)cc1)C(=O)C1CCN(C(=O)c2ccc(Cl)cc2)CC1	3.5	-3	.	.	.
Nc1nnnn1CC(=O)N/N=C/C=C/c1ccccc1	-2.2	-5	.	.	.
CCn1c(SCC(=O)c2ccc(OC)cc2)nnc1C1CC1	-1.3	-7	-1%	27	1
Cc1cc2ccccc2n1CCC(=O)O	-4.9	-14	3%	.	5
CCn1c(CSc2nc(C)cc(C)n2)nnc1SCC(=O)N1CCCc2ccccc21	-0.5	7	-7%	-32	4
COc1ccc(S(=O)(=O)NCC(c2cccs2)N2CCc3ccccc3C2)cc1 (configuration not stated)	7.4	-10	.	.	.
Cc1nnc(SCC(=O)Nc2cc(C(C)(C)C)nn2-c2ccccc2)s1	-0.2	-1	3%	-30	2
COc1ccc(NC(=O)CCNC(=O)Cn2ccc3ccccc3c2=O)c(OC)c1	1.4	-1	-11%	-20	3
CC(C)(C)c1ccc(-c2noc(CCC(=O)Nc3cccnc3)n2)cc1	-0.3	0	.	.	.
Cn1c(=O)c2c(nc(-c3ccccc3)n2C)n(Cc2ccccc2)c1=O	0.9	4	7%	-6	2
